# Bioassay records: PubChem, several laboratories
# RGS16-Gao HTS: regulators of human RGS16-Galphao interaction | binding response (% of control), % at 10 µM | bead-based flow cytometry RGS16-Galphao binding, fluorescence; actives lie on both sides | AID 1441 | 220,000 tested, 0.38% active | O15492+P09471;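 active means below 25% or above 175%, edge rows of some plates excepted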;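 further: Galphao activated by GDP with aluminum fluoride before binding; 100% = wells without compound and 0% = beads without RGS; some results beyond the cut were filed as inactive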
# HSV augment: increases HSV replication in cells; HSV replication augmentation in cells, fold increase; maximum fold increase; 220,000 tested, 0.005% active; AID 1956;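 active means peak rise of 1.5-fold or more in the series; inconclusive means self-fluorescent or not available for retest; tested in PC3 cells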;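 further: first round at 10 µM; read as green reporter fluorescence; hits show the peak of a series up to 25 µM; 1 = signal of infected wells without compound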
# PKD1 inh: blocks activity of human protein kinase D1; inhibition, %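 (about 10 µM by stock and volumes)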; PKD1 kinase fluorescence polarization assay; Q15139; 200,000 tested, 0.056% active;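 active means inhibition of 50% or more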;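 further: controls were vehicle for no effect and a reference inhibitor for full effect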
# Target sequence (Q15139 whole entry, looked up): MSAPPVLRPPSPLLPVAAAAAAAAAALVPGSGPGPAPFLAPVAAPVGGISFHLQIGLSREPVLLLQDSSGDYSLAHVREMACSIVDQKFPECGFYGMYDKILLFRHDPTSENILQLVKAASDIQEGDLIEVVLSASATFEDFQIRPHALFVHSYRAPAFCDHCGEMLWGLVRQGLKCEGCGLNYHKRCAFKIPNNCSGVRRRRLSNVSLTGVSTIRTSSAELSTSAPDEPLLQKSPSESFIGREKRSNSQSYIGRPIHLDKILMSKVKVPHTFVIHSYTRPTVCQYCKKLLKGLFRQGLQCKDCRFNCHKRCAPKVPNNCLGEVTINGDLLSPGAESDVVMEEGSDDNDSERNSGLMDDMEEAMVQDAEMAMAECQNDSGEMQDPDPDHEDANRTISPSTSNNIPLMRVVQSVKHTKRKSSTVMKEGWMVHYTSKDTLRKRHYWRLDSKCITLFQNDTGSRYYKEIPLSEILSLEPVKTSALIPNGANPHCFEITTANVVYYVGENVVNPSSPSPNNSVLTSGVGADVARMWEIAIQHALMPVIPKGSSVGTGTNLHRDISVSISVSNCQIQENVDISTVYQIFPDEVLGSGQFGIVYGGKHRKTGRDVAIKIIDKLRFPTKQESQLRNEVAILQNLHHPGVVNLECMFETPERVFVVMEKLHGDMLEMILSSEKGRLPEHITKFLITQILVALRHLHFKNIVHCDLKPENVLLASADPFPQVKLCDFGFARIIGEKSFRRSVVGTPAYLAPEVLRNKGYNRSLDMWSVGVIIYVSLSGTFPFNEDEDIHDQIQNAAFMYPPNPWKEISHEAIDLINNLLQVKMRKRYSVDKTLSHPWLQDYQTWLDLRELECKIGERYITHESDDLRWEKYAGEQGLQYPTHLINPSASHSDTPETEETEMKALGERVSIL
# INS promoter inh: TRM-6 insulin promoter activity inhibition; 130,000 tested, 0.9% active; AID 1273; TRM-6 cells (human fetal islet line), insulin promoter-eGFP reporter, imaging; reporter expression induced with tamoxifen; inhibition, % at 2 µM;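 active means inhibition above the mean plus 3 SD, with well images judged a real hit on visual review, cut at about 60% in these data, passing the limit was not always enough; inconclusive means inhibition over the cutoff but images rejected on review; inactive means inhibition not above the cutoff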
# GALR2 agonist: activates the human galanin receptor 2. 140,000 tested, 0.48% active. GALR2-expressing cells, agonist activation read-out. activation, %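 (tested at 5 µM)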. AID 803. O43603;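 active means above mean plus 3 SD of all compounds, about 5% in these data, not always enough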;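 further: 0% = vehicle buffer wells and 100% = reference agonist at full effect; tested in CHO reporter cells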
# INS promoter inh cell count: recorded beside INS promoter inh, whose call it bears; normalized cell count, %; measured here: cell count, toxicity; reference of the scale not given here;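 cells exposed to compound for 48 h; stained nuclei by imaging scaled within each plate; lower means fewer cells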
# HSV augment primary fold: recorded beside HSV augment, whose call it bears; fold increase; compound at 10 µM; measured here: primary screen fold increase 10 uM; tested in PC3 cells;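 GFP signal in the first replicate; 1 = infected wells without compound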
# Numbers without * were called inactive; i = inactive; ? = inconclusive; · = not tested or not shown. Compounds as they come; any-hit rate near 1.3%.
SMILES,RGS16-Gao HTS,HSV augment,HSV augment primary fold,PKD1 inh,INS promoter inh,INS promoter inh cell count,GALR2 agonist
Nc1nc(SCc2nc3sc4c(c3c(=O)[nH]2)CCCC4)n[nH]1,53,i,0.84,8,-62,103,-2.0
Cc1ccc(CSc2ccc3nnc(-c4ccccn4)n3n2)cc1,108,i,0.85,-5,-14,71,·
COC(=O)c1cc(=O)nc2sc(-c3cccs3)nn12,114,i,0.79,5,30,123,-3.3
CCOC(=O)C1CCN(Cc2nc(-c3ccc(OC)c(OC)c3)no2)CC1,112,i,0.85,-3,·,·,-2.9
Cn1cc([N+](=O)[O-])c(C(=O)N/N=C/c2cc3c(cc2Br)OCO3)n1,103,i,0.92,-4,·,·,·
CCCCCCCC(=O)OC(CN1CCCCCC1)CN1CCCC1=O (stereo not given),107,i,0.91,·,·,·,·
O=C(c1cccs1)c1ccc(-c2cccs2)s1,100,i,0.95,1,·,·,5.6
Cc1ccc(C(=O)NC(=C(Cl)Cl)S(=O)(=O)c2ccc(Cl)cc2)cc1,99,i,0.87,-5,-129,123,·
CN(C)S(=O)(=O)c1ccc(Cl)c(NC(=O)CSc2nc3c(cc2C#N)C(=O)CC(C)(C)C3)c1,96,i,0.88,10,6,108,0.5
Cc1cc(C)cc(NC(=O)CSc2nnc(Cn3c(=O)sc4ccccc43)n2C)c1,100,i,0.92,0,·,·,-1.5
Cc1nc(CNS(=O)(=O)c2cc([N+](=O)[O-])ccc2C)cs1,102,i,1,·,·,·,·
CCCCCCn1c(SCC(C)C)nc2c1c(=O)[nH]c(=O)n2C,101,i,0.96,-11,29,88,-0.4
O=C(CN1C2=NCCN2c2ccccc21)c1cccs1,103,i,0.98,-6,6,123,0.1
CCc1ccc2[nH]c(=O)c(CN(Cc3ccccc3OC)Cc3nnnn3Cc3ccco3)cc2c1,99,·,·,-8,13,158,-1.4
CC(Oc1ccccc1)C(=O)OCC(=O)N1CC(=O)Nc2ccccc21 (stereo not given),115,i,0.97,-5,17,101,·
CCOc1ccc(CN2CCN(Cc3cccn3-c3cccnc3)CC2CCO)cc1 (stereo not given),100,i,0.8,-3,·,·,·
CC(C)(C)OC(=O)NCCCC[C@H](NC(=O)c1[nH]cnc1C(=O)Nc1ccc(Cl)cc1)C(=O)OC(C)(C)C,99,i,0.78,·,·,·,·
O=C1C(Cl)=C(N2CCCCC2)C(=O)N1c1ccccc1,99,i,0.99,-2,-125,57,-1.9
COc1cccc(-c2nn(C)c3sc(C(=O)NCc4ccccn4)cc23)c1,96,i,0.76,-9,59,75,-2.0
Cc1ccsc1/C=C1/SC(=O)N(CC(=O)N2CCOCC2)C1=O,104,i,1,-3,40,47,-1.4
Cc1ccc(NC(=O)/C(=C\c2ccc3c(c2)OCO3)NC(=O)c2ccco2)cc1,102,i,0.93,-4,·,·,-2.6
COc1ccc(C2C(C(=O)N3CCOCC3)CCC(=O)N2c2cc(OC)c(OC)c(OC)c2)cc1 (stereo not given),101,i,0.81,-8,48,122,0.4
CC(C)C(NS(=O)(=O)c1cccs1)C(=O)NCCN1CCN(c2ccccc2)CC1 (stereo not given),126,i,0.92,-8,6,102,0.9
COc1ccc2cc(CN(CCc3ccccc3)Cc3nnnn3Cc3ccco3)c(=O)[nH]c2c1,97,i,0.92,-1,·,·,-0.2
Cc1ccc(C)c(/C=N/n2cc(-c3ccccc3)[nH]c2=S)c1,100,i,0.99,2,17,98,·
# Other entries follow.
SMILES,RGS16-Gao HTS,HSV augment,HSV augment primary fold,PKD1 inh,INS promoter inh,INS promoter inh cell count,GALR2 agonist
CC1Cc2ccccc2N1C(=O)CSc1nc2ccccc2n1CC(=O)N1CCOCC1 (stereo not given),93,i,0.79,-8,-49,58,-1.6
COc1ccc(-c2ccc(SCC(=O)N3CCOCC3)nn2)cc1,111,i,0.82,-7,·,·,-2.3
Fc1ccc(NCc2nnc3n2CCCCC3)cc1,100,i,1,1,·,·,·
O=C(Nc1ccccc1)c1ccccc1NC(=O)C(F)(F)F,108,i,1.1,-8,3,162,-2.5
Cc1cc(C)n(-c2cc(N3CCN(C(=O)c4ccc(C(C)(C)C)cc4)CC3)ccc2[N+](=O)[O-])n1,98,i,0.81,2,0,94,-2.4
CCn1c(COc2ccccc2C)nnc1SCc1nc2ccccc2c(=O)[nH]1,101,i,1,5,-17,151,·
Cc1ccc(/C=N/NC(=O)c2ccoc2C)o1,105,i,0.94,4,-5,136,-0.8
COc1ccccc1C1CCN(c2ccc([N+](=O)[O-])cn2)CC1,107,i,1.1,·,·,·,·
CCOC(=O)N1CCN(C(=O)c2ccc(OCC)cc2)CC1,96,i,0.92,-8,21,129,·
COc1ccc(C(=O)COC(=O)CCN2C(=O)C3C4CCC(C4)C3C2=O)cc1 (stereo not given),103,i,1.1,-3,24,134,·
COc1ccc(-c2cnc3n2CCCCC3)cc1,85,i,1.2,·,·,·,·
COc1ccc(Nc2nc(NCc3ccco3)nc(N/N=C/c3ccccc3F)n2)cc1,44,i,1,3,·,·,-0.8
CC1CCc2cc(F)ccc2N1C(=O)C1(C)CC1(Cl)Cl (stereo not given),97,i,1.1,-5,22,155,-1.5
CC(C)C(=O)Nc1ccc2c(c1)C(=O)NC2=O,107,i,1,-3,-62,114,·
CSc1nc(Oc2ccc3ccccc3c2)c2ccccc2n1,107,i,0.95,-3,30,133,-1.3
O=c1cc(CN2CCN(c3ccccc3F)CC2)c2cc3c(cc2o1)CCCC3,109,i,0.91,-4,38,124,-2.4
Cc1ccc(NCc2nnc(SCC(=O)Nc3cc(C)on3)n2C)cc1,103,i,0.95,-3,66,88,-1.4
COc1ccc(CNc2nc3c(c(=O)n(Cc4ccc(F)cc4)c(=O)n3C)n2C)cc1,103,i,0.88,-12,·,·,-1.5
COC(=O)c1ccccc1NC(=O)N1CCN(S(=O)(=O)c2ccc(Cl)cc2)CC1,126,i,0.96,-7,-32,132,-1.3
O=C(Nc1cc(C(F)(F)F)ccc1Cl)c1ccc(NC(=O)C(F)(F)F)cc1,100,i,0.73,-5,50,173,-0.2
O=C(NCC(=O)N1CC(O)CC1C(=O)N1CC(O)CC1C(=O)OCc1ccccc1)OCc1ccccc1 (stereo not given),101,i,0.98,-2,-43,156,·
COc1ccc(C(=O)Nc2cc(C(=O)c3ccccc3)c(C)oc2=O)cc1,99,i,0.76,-2,-9,103,-1.7
COC(=O)C(=NNc1c(C)n(C)n(-c2ccccc2)c1=O)C(=O)OC,101,i,1,-2,·,·,-0.4
O=C(Cc1ccccc1)NCC1CCCO1 (stereo not given),93,i,1.2,-2,-3,167,-4.2
COC(=O)c1ccc(S(=O)(=O)N2CCN(CCO)CC2)n1C,89,i,1,·,·,·,·

# Profiles, quoted from the list. Values in the order: RGS16-Gao HTS | HSV augment | HSV augment primary fold | PKD1 inh | INS promoter inh | INS promoter inh cell count | GALR2 agonist
# Entry for CC1Cc2ccccc2N1C(=O)CSc1nc2ccccc2n1CC(=O)N1CCOCC1 (stereo not given) → 93 | i | 0.79 | -8 | -49 | 58 | -1.6
# Entry for COc1ccc(C(=O)COC(=O)CCN2C(=O)C3C4CCC(C4)C3C2=O)cc1 (stereo not given) → 103 | i | 1.1 | -3 | 24 | 134 | ·
# Entry for COc1ccc(CNc2nc3c(c(=O)n(Cc4ccc(F)cc4)c(=O)n3C)n2C)cc1 → 103 | i | 0.88 | -12 | · | · | -1.5
# Entry for COc1ccccc1C1CCN(c2ccc([N+](=O)[O-])cn2)CC1 → 107 | i | 1.1 | · | · | · | ·
# Entry for COc1ccc(Nc2nc(NCc3ccco3)nc(N/N=C/c3ccccc3F)n2)cc1 → 44 | i | 1 | 3 | · | · | -0.8

# Following part:
SMILES,RGS16-Gao HTS,HSV augment,HSV augment primary fold,PKD1 inh,INS promoter inh,INS promoter inh cell count,GALR2 agonist
Cc1cc(NC(=O)Cn2cnc3c(nnn3-c3ccc(C)c(Cl)c3)c2=O)no1,97,i,1.1,3,-16,91,·
O=C(NCC1CCCO1)c1cccc(Br)c1 (stereo not given),90,i,0.96,-5,-480,60,-2.0
COc1cccc([C@@H]2Oc3ccc(OC)cc3C(=O)[C@H]2O)c1,102,i,0.81,-5,29,135,-0.9
O=C(O)COc1c(-c2ccccc2)oc2ccccc2c1=O,86,i,1.1,-3,29,117,-3.2
O=c1c(Cc2ccccc2)c(O)ccn1CCc1cnc[nH]1,99,i,1,0,·,·,·
Cc1cc(Cl)c(OCCOCCN2CCCCC2)c(Br)c1,97,i,0.93,-9,-37,124,-0.4
COc1ccc(/C=C/C(=O)OCC(=O)c2c(N)n(C)c(=O)n(C)c2=O)c(OC)c1,97,i,0.88,-11,-10,80,·
CC(C)S(=O)(=O)N1CCN(c2ccnc3cc(Cl)ccc23)CC1,103,i,1,·,·,·,·
CCc1ccc(C=NC23CN4CN(CN(C4)C2)C3)s1,104,i,0.87,-7,-16,122,-1.2
Nn1c(SCC(=O)N2CCCCC2)nnc1-c1ccncc1,92,i,1.2,-2,-46,130,-2.5
CC(=O)NC1C(Oc2ccc3c(C)cc(=O)oc3c2)OC(COC(C)=O)C(OC(C)=O)C1OC(C)=O (stereo not given),107,i,1,16,8,109,·
c1ccc(-n2nnnc2-c2cnc(-c3ccncc3)nc2-c2cccs2)cc1,64,i,0.7,-1,·,·,-0.3
O=S(=O)(CCNCc1cccs1)c1ccc(Cl)cc1,85,i,0.9,·,·,·,·
Cc1ccc(-n2[nH]c(C)c(/C=N/NC(=O)c3ccc([N+](=O)[O-])cc3)c2=O)c(C)c1,108,i,0.85,-2,·,·,·
Cc1ccc(-c2cnc(-c3ccncc3)o2)cc1,104,i,0.92,8,·,·,-1.3
CC(C)(C)C(=O)OC/C(N)=N/OC(=O)c1ccc(Cl)cc1,107,i,1.2,·,·,·,·
O=C(CNC(=S)N(CCCN1CCOCC1)Cc1cccs1)NC1CC1,119,i,1.1,1,9,110,0.8
Cc1cc2nnc(SCC(=O)N3CCCCC3)n2c(N)n1,65,i,1,-5,·,·,·
CC(C)(C)c1cc(C(=O)NNC(=O)Nc2ccccc2)n(Cc2ccccc2)n1,104,i,1.2,·,·,·,·
COc1ccc(NS(=O)(=O)c2cc(NC(=O)c3sccc3C)ccc2N2CCOCC2)cc1,100,i,0.8,·,·,·,·
CCOC(=O)c1c(O)c2cccc3c2n(c1=O)CC3,97,i,0.93,·,·,·,·
CCOc1cc(/C=C/c2cc(C(F)(F)F)[nH]c(=O)n2)ccc1O,102,?,·,-7,·,·,·
O=C(/C=C/c1ccc2c(c1)OCO2)c1ccc[nH]1,94,i,0.9,11,·,·,0.2
CCOC(=O)C1CCCN(CCC(=O)Nc2ccccc2)C1 (stereo not given),97,i,1,-8,-57,59,-1.6
O=C(c1scc2c1CCCC2)N1CCCCC1,97,i,1,-5,22,82,-3.6
# Continuation.
SMILES,RGS16-Gao HTS,HSV augment,HSV augment primary fold,PKD1 inh,INS promoter inh,INS promoter inh cell count,GALR2 agonist
O=P(OC1CCCCC1)(OC1CCCCC1)C(O)c1cccnc1 (stereo not given),97,i,1,·,·,·,·
CCCCn1c(=N)n(CC(=O)c2ccc(OC)cc2)c2ccccc21,101,i,1,·,·,·,·
COC(=O)CC1=C(C(=O)OC)C(c2ccc3c(c2Cl)OCO3)C(C#N)=C(N)O1 (stereo not given),102,i,0.91,2,6,64,-1.2
CCN1CCCC(OC(=O)c2cc(-c3ccc(C)cc3)nc3ccccc23)C1 (stereo not given),97,i,0.91,-1,·,·,·
O=C(Cn1c(NCCO)nc2ccccc21)c1ccccc1,116,i,0.99,-9,-56,61,-0.9
CCN1CCN(C(=O)Nc2ccc(OC)cc2OC)CC1,104,i,1.1,7,47,73,·
Cc1cc(/C=C2\C(=N)N3N=CSC3=NC2=O)c(C)n1Cc1ccccc1,97,i,1,·,·,·,·
COCCNC(=O)C(C#N)c1nc2ccccc2nc1N1CCCCCC1 (stereo not given),143,·,·,-9,·,·,0.4
Cc1cc(C)c(C)c(OCC(=O)O/N=C(\N)c2cccnc2)c1,102,i,0.94,·,·,·,·
c1cn(CCCNc2ncnc3nc[nH]c23)cn1,234,i,0.81,2,·,·,-1.6
CSc1ccccc1NC(=O)c1ccncc1,101,i,1.1,4,53,115,-1.4
O=C(NNc1nc2c(F)cc(F)cc2s1)C1COc2ccccc2O1 (stereo not given),102,i,1,-5,6,179,·
CCOC(=O)C1(Cc2cccc(OC)c2)CCCN(C(=O)CCc2cccnc2)C1 (stereo not given),101,i,1.1,-4,·,·,·
COc1ccc(NC(=O)c2cc(-c3ccccc3OC)on2)cc1,103,i,0.66,-2,·,·,1.0
CC(C)NC(=O)CCc1nnc(Cc2cccc(C(F)(F)F)c2)o1,105,i,0.92,-2,·,·,·
